Bioassay records (PubChem)
VDR inh = Inhibitors of the vitamin D receptor (VDR): qHTS; Vitamin D3 receptor (Homo sapiens), P11473; VDR-SRC2-3 peptide fluorescence polarization, 2 h; Potency, µM, for inactives: max response, negative = inhibition, most hits filed as inhibitors; 0.93% of 400,000 active; AID 504847, 2011; active means well fitted inhibition curve with a large enough effect; inconclusive means small, poorly fitted or top-dose-only effect, or another doubt; inactive means no such curve, though single readings can be large or run the other way; further: series mostly up to about 120 µM
Target sequence (P11473 whole entry, looked up): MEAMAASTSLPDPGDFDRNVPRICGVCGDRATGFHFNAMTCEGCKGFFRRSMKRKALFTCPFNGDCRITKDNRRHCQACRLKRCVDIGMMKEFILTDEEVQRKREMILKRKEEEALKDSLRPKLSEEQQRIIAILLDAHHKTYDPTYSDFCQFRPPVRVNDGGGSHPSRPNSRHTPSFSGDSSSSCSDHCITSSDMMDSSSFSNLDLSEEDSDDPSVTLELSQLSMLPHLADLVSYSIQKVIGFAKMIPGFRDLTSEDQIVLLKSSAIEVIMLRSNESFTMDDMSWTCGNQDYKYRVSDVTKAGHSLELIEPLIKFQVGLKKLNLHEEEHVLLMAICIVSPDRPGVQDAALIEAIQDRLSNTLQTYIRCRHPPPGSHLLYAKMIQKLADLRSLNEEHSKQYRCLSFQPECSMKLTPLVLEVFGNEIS
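Signal is fluorescence polarization, reporting how far test compounds block the interaction of VDR with the SRC2-3 coregulator peptide after a 2 h room-temperature incubation.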
* marks the source's active call; other numbers are inactive results; ? = inconclusive; & = joins results of further samples; [ ] = another dose, or the depositor's remark. On the % scale 0 is the no-effect control and ±100 the full control effect; potency means the concentration at half of the fitted maximal effect.

Start of the data: the first 2 records, to show the layout:
VDR inh	Compound
-14%	CN(CC(=O)Nc1ccc(Cl)c(C(F)(F)F)c1)C(=O)CC1Sc2ccccc2NC1=O (stereo unspecified)
16%	Cc1ccc(-c2nc(SCc3ccc(Br)cc3)n3[nH]c(=O)cc3n2)cc1

The whole of this part, from the first entry:
VDR inh	Compound
-14%	CN(CC(=O)Nc1ccc(Cl)c(C(F)(F)F)c1)C(=O)CC1Sc2ccccc2NC1=O (stereo unspecified)
16%	Cc1ccc(-c2nc(SCc3ccc(Br)cc3)n3[nH]c(=O)cc3n2)cc1
-4%	Cc1ccc(CN(C(=O)c2cc(=O)c3cc(C)cc(C)c3o2)C2CCS(=O)(=O)C2)cc1 (stereo unspecified)
16%	COc1ccc(CCNC(=O)C(CC(C)C)N2Cc3ccccc3C2=O)c(OC)c1OC (stereo unspecified)
15%	Cc1ccc2c(C)c(C(=O)N(Cc3ccc(N(C)C)cc3)Cc3ccco3)oc2c1C
17%	Cc1ccc(Cl)cc1NS(=O)(=O)c1cc2[nH]c(=O)c(=O)[nH]c2cc1C
-10%	CCCCNC(=O)O[C@H]1C[C@@H]2CCN3C(=O)CCC(C)(C)[C@H](C1)[C@H]23
6%	O=C1C2=C(NC(=S)NC2c2ccc(Cl)cc2)NC(c2ccc(Cl)cc2)N1c1ccc(Cl)cc1 (stereo unspecified)
-14%	CCN(CC)c1ccc2cc(NC(=O)CCC(=O)O)c(=O)oc2c1
-1%	O=C(NCCCCc1ccccc1)Nc1ccc(F)cc1F
6%	CC(=O)NCCNC(=O)CCCn1c(=O)[nH]c2ccsc2c1=O
2%	Cc1noc(C)c1S(=O)(=O)N1CCC(C(=O)N2CCC(C)CC2)CC1
13%	Brc1ccc(-c2nc(N3CCN(c4ccccc4)CC3)c3ccccc3n2)cc1
-13%	CCCn1c(=O)c(-c2ccccc2)c(O)c2ccccc21
-11%	CCCCCSc1nnc(C)c(=O)[nH]1
16%	COc1cccc(NC(=O)CCC(=O)NCc2ccco2)c1
6%	CC(C)(C)OC(=O)C[C@H]1C/C=C\C[C@H](CC(=O)NCCO)C(=O)N[C@@H](Cc2ccccc2)COC1=O
11%	CC(=O)c1ccc(N2CCN(Cc3nc(Cc4ccccc4)no3)CC2)cc1
-21%	Cc1ccc(NC(=O)c2ccc(C(C)(C)C)cc2)cc1[N+](=O)[O-]
20%	COc1ccc(-c2cc(C3CCN(Cc4ccc([N+](=O)[O-])cc4)CC3)[nH]n2)cc1
-8%	O=[N+]([O-])c1ccc(Sc2ccc(Cl)c(Cl)c2)nc1
-18%	O=C(OCN1C(=O)c2ccccc2C1=O)c1ccc(Cl)nc1
-22%	COC(=O)/C=C1\SC(=Nc2ccc(OC)cc2)NC1=O
1%	O=C(CCc1nnc(CCCCc2ccccc2)o1)N1CCC(N2CCCC2)CC1
11%	CCOC(=O)CN[C@H]1CCC2C3CC=C4C[C@@H](O)CC[C@]4(C)C3CC[C@@]21C (stereo partly specified)

Retrieved by structure from above:
VDR inh	Compound
13%	Brc1ccc(-c2nc(N3CCN(c4ccccc4)CC3)c3ccccc3n2)cc1
6%	CC(=O)NCCNC(=O)CCCn1c(=O)[nH]c2ccsc2c1=O
20%	COc1ccc(-c2cc(C3CCN(Cc4ccc([N+](=O)[O-])cc4)CC3)[nH]n2)cc1

Next entries follow:
VDR inh	Compound
20%&-11%	CSc1nc2cc(Oc3cccc(Cl)c3Cl)c(Cl)cc2[nH]1
-2%	O=C(Cn1c(=O)n(-c2ccccc2)c(=O)c2ccc(C(=O)NCc3ccc4c(c3)OCO4)cc21)Nc1ccc(F)cc1
16%	CCn1nc(C)c(CNC(=O)c2cc(COc3ccc(C)nc3)on2)c1C
9%	Cc1nn(C)cc1C=NCCOCc1ccccc1
1%	O=C(CCCO)c1ccc2c(c1)OCCO2
-6%	CCN1CCN(c2nc3c(c(=O)[nH]c(=O)n3C)n2CCCSc2ncccn2)CC1
-4%	CCSc1ncc(Cl)c(C(=O)Nc2sc3c(c2C(=O)NC)CCCC3)n1
15%	COc1ccc(CCNC(=O)c2csc3c2CCCC3)cc1OC
-15%	CCOc1ccc(NS(=O)(=O)c2cc3c4c(c2)C(C)C(=O)N4CCC3)cc1 (stereo unspecified)
2%	Cc1ccccc1N1C(=O)CC(N2CCC(C(N)=O)CC2)C1=O (stereo unspecified)
-13%	COC(=O)c1c(NC(=O)C2CC=CCC2C(=O)O)sc2c1CCCCC2 (stereo unspecified)
-6%	O=C1Nc2ccc(S(=O)(=O)N3CCCCCC3)c3cccc1c23
?	O=C(NCc1ccc(Cl)cc1)c1ccc2nc[nH]c2c1
1%	CCN1CCN(CCOc2cccc(Cl)c2Cl)CC1
7%	C=CCc1c(C)nc(SC)nc1Nc1ccccc1
-9%	CCN1CCOC(=O)C1CC(=O)Nc1ccc(C(C)=O)cc1 (stereo unspecified)
?	O=C(NC1CC1)c1ccc(NC(=O)C2CCCCC2)cc1
-2%	CC1CC(C)CN(C(=O)COC(=O)c2ccc3c(c2)OCO3)C1 (stereo unspecified)
5%	CCOC(=O)CSc1nc2ccc(NC(=O)c3cccc(F)c3)cc2s1
-1%	CCN(CC)CCNC(=O)CNC(=O)c1nn(-c2ccc(OC)cc2OC)c(=O)c2ccccc12
-18%	N#CC(C#N)=C1C=C2C=C(N3CCCCCC3)CCC2CC1 (stereo unspecified)
12%	CCC(Sc1nnc(-c2ccc(OC)cc2)c(-c2ccc(OC)cc2)n1)C(=O)NC1CCCCC1 (stereo unspecified)
7%	Cc1ccc2cc(CN(C)C(=O)c3cccc(Cl)c3)c(=O)[nH]c2c1
-14%	C#CCN(CC=C)C(=O)c1cccc(OC2CCN(S(C)(=O)=O)CC2)c1
-10%	O=C(Cn1nnc2ccccc2c1=O)NC1CCCCC1
7%	Cc1cc(C)n(-c2nc3ccccc3nc2N2CCN(S(=O)(=O)c3ccc(F)c(C)c3)CC2)n1
-26%	CCOc1ccc(OCC(=O)OCC(=O)N2CCN(C(=O)c3ccco3)CC2)cc1
-2%	CCOP(=O)(OCC)/C(C#N)=C/c1c[nH]c2ccccc12
3%	O=C(Nc1ccc(OC(=O)c2cccs2)cc1)c1ccco1
12%	O=C(CSc1nc2ccccc2c(=O)n1CC1CCCO1)NCc1ccccc1 (stereo unspecified)
1%	Cc1c2cnn(CC(=O)N3CCN(c4ccccc4)CC3)c(=O)c2c(C)n1Cc1ccccc1Cl
-12%	CCCCSc1nnc(CCCCCNC(=O)OC(C)(C)C)o1
1%	C=CCn1cc(C(=O)NCc2ccc3c(c2)OCO3)c(=O)c2cc(S(=O)(=O)N(CC)CC)ccc21
-2%	COc1ccc([N+](=O)[O-])cc1NC(=O)C(C)OC(=O)Cn1[nH]c(=O)c2ccccc2c1=O (stereo unspecified)
-1%	O=C(CCn1ccc2cc(S(=O)(=O)N3CCCC3)ccc21)NCCc1ccccc1
-6%	COc1ccccc1-c1nnc2sc(COc3ccc(F)cc3)nn12
5%	Cc1ccc(N(CC(=O)Nc2ccc(-c3nc4ccc(C)cc4s3)cc2)S(C)(=O)=O)cc1
12%	COCCNC(=O)C(c1cccc(OC)c1)N(C(=O)Cn1nnc2ccccc21)c1cccnc1 (stereo unspecified)
-4%	CCn1c(C(C)NC(=O)Cc2ccccc2)nc2ccccc21 (stereo unspecified)
-8%	CCS(=O)(=O)c1ccc2oc(Nc3ccccc3Br)nc2c1
-5%	Cn1ncc(Cl)c(Oc2ccc(Cl)cc2)c1=O
4%	[O-][n+]1cccc2c(Br)cc(Br)c(O)c21
15%	CC(C)Oc1ccc(C(=O)NCC(=O)O)cc1
-7%	COCC1OS(=O)(=O)NC(CC(=O)SC(C)(C)C)C1C (stereo unspecified)
-10%	Cc1nc2ccc(NC(=O)c3nn(C(C)C)c(=O)c4ccccc34)cc2s1
-4%	Cc1cc(C)cc(NC(=O)CSc2nc(-c3cccc(Cl)c3)nc3c2Cc2c(CO)cnc(C)c2O3)c1
?	COc1ccc2nc(-c3ccco3)c(-c3ccco3)nc2c1
-21%	CC1CCC(NC(=O)c2cc3c(s2)CCCC3)CC1 (stereo unspecified)
11%	CCN(CC)c1ccc(/C=N/OCC(=O)N2CCCc3ccccc32)cc1
19%	COc1cc(CNc2ccc3[nH]c(=O)[nH]c3c2)ccc1OCc1ccc(C)cc1

Rewritten field by field: 4 of the compounds above.
> [O-][n+]1cccc2c(Br)cc(Br)c(O)c21
  VDR inh: 4%

> CC(C)Oc1ccc(C(=O)NCC(=O)O)cc1
  VDR inh: 15%

> COCC1OS(=O)(=O)NC(CC(=O)SC(C)(C)C)C1C (stereo unspecified)
  VDR inh: -7%

> Cc1nc2ccc(NC(=O)c3nn(C(C)C)c(=O)c4ccccc34)cc2s1
  VDR inh: -10%

(further entries)
VDR inh	Compound
-4%	O=[N+]([O-])c1ccc(CSc2nnc(SCc3ccccc3)s2)cc1
9%	COc1ccc(O)c(-c2cc(-c3cccs3)[nH]n2)c1
14%	O=C1c2ccccc2C(=O)N1CCC1(O)C(c2ccccc2)=Nc2ccccc21 (stereo unspecified)
-10%	CCOC(=O)C1=NN(c2ccc(OC)cc2)C(c2ccccc2)CC1=O (stereo unspecified)
-16%	COc1ccc(CCNC(=O)CCc2c(C)nc3c4cccnc4nn3c2C)cc1OC
-19%&-3%	Cc1cc2oc(=O)cc(-c3ccccc3)c2c(C)c1-c1ccc(OC(F)(F)F)cc1
?	O=C(NC1CCCCC1)N1CCNCC1
0%	CCC(=O)Nc1cccc(NC(=O)c2cc3ccccc3o2)c1
22µM*	FC(F)(F)c1cc(NC(=S)Nc2ccc3cc4ccccc4cc3c2)cc(C(F)(F)F)c1
10%	Cc1cc(C)c(OCC(=O)N2CCN(c3ncc(C(F)(F)F)cc3Cl)CC2)c(C)c1
4%	Nc1nc(SCC(=O)N2CCN(S(=O)(=O)c3ccc(Cl)cc3)CC2)n[nH]1
-3%	COC(CNc1ncnc2c1cnn2C)OC
0%	CC(C)NC(=O)N(C)C[C@H]1Oc2ccc(NC(=O)c3ccncc3)cc2C(=O)N([C@H](C)CO)C[C@@H]1C
1%	COc1ncc2nc(-c3ccc(F)cc3)c(=O)n(-c3ccccc3)c2n1
9%	CC(C)NC(=O)C1CCN(C2CCN(Cc3nc4ccccc4s3)CC2)CC1
-17%	CCCOc1ccccc1-c1nc(SCCC(=O)O)n[nH]1
30%[activator]	O=C(OCc1cccc([N+](=O)[O-])c1)c1ccncc1
-6%	CN(C)S(=O)(=O)c1cc(NC(=O)CN2C(=O)NC3(CCCc4ccccc43)C2=O)ccc1Cl (stereo unspecified)
15%	O=C(Nc1ccccn1)C(NS(=O)(=O)c1cccc2nsnc12)c1ccccc1 (stereo unspecified)
5%	O=C(COc1ccc(Cl)cc1)Nc1ccc(N2CCN(C(=O)c3ccco3)CC2)cc1
3%	CCCn1c2c(c(O)c(C(=O)NCCCN(CC)CC)c1=O)CCCC2
-3%	O=C(O)CCCCCN1C(=O)C(O)=C(C(=O)/C=C/c2ccccc2)C1c1ccc2c(c1)OCO2 (stereo unspecified)
10%	COc1ccc(CNC(=O)COC(=O)c2ccc3c(c2)OCCO3)cc1
-2%	Oc1ccccc1-c1nc2c3ccccc3c3ccccc3c2[nH]1
17%	N=C1SC(CC(=O)Nc2ccc([N+](=O)[O-])cc2)C(=O)N1c1ccccc1 (stereo unspecified)
-15%	Cc1ccc(C(=O)N/C(=C/c2cccnc2)C(=O)NCc2ccco2)cc1
-22%	O=C(c1ccc2c(=O)n(Cc3ccccc3Cl)c(=S)[nH]c2c1)N1CCCC1
-19%	CCCCCCC(=O)N1C/C=C\C(c2ccc(OC)cc2)N(Cc2ccc(F)cc2)C(=O)C1Cc1ccccc1 (stereo unspecified)
?	CC(C)=C[C@@H]1C[C@H](C)[C@H]2CC[C@H](C)c3c(O)c(O)c(C)c1c32
?	COC(=O)c1cc(NS(=O)(=O)c2ccc(N3CCOCC3)c(N)c2)cc(C(=O)OC)c1
-15%	O=C(CN1C(=O)S/C(=C\C=C\c2ccccc2)C1=O)N1CCCCC1
-9%	COc1ccccc1NS(=O)(=O)c1cccc(C(=O)N/N=C/c2ccc3c(c2)OCCO3)c1
-7%	CCn1c2ccccc2c2cc(CN3CCN(S(=O)(=O)Cc4ccccc4)CC3)ccc21
14%	CC(=O)c1cccc(NC(=O)c2nc(-c3ccccc3)n(-c3ccccc3C)n2)c1
-8%	N#Cc1cccc(C(=O)OCc2cccc(S(=O)(=O)N3CCOCC3)c2)c1
?	CC(Oc1ccc(/C=N/NC(=O)Cc2cccc3ccccc23)cc1)C(=O)O (stereo unspecified)
?	Cc1ccc(-c2cc(-c3ccc(F)cc3)c(C#N)c(N)n2)o1
-17%	CC(NC(=O)c1ccco1)C(=O)N(C)Cc1ccc(C(F)(F)F)cc1 (stereo unspecified)
-2%	O=C(c1cccc(Oc2ccc([N+](=O)[O-])cc2Cl)c1)N1CCCCC1
28%	CCOc1ccc(OCC)c(NC(=O)CN(C)S(=O)(=O)c2ccc3[nH]c(=O)oc3c2)c1
0%	O=C(Nc1ccc(C(F)(F)F)cc1)c1cc(S(=O)(=O)N2CCCc3ccccc32)ccc1F
8%	COc1ccccc1NC(=O)c1cnc(SCC(=O)N2CCCc3ccccc32)n(C)c1=O

5 successive entries already listed, for reference:
VDR inh	Compound
-17%	CC(NC(=O)c1ccco1)C(=O)N(C)Cc1ccc(C(F)(F)F)cc1 (stereo unspecified)
-2%	O=C(c1cccc(Oc2ccc([N+](=O)[O-])cc2Cl)c1)N1CCCCC1
28%	CCOc1ccc(OCC)c(NC(=O)CN(C)S(=O)(=O)c2ccc3[nH]c(=O)oc3c2)c1
0%	O=C(Nc1ccc(C(F)(F)F)cc1)c1cc(S(=O)(=O)N2CCCc3ccccc32)ccc1F
8%	COc1ccccc1NC(=O)c1cnc(SCC(=O)N2CCCc3ccccc32)n(C)c1=O

Only part of the results is shown. The share of hits here may be higher or lower than overall.
